From PubChem BioAssay
AF4-AF9 inh – blocks AF4 peptide binding to human AF9 | P42568 | AlphaScreen, biotin-AF4 peptide binding to FLAG-AF9 | inhibition, % at 10 µM | 350,000 compounds, 0.47% hits | AID 651704;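 active = every replicate reaching a set inhibition limit, whatever the replicate mean, cut at about 25% in these data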;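 also: 0% = plate neutral control median and 100% = total signal loss; the record names both 10 and 1 µM as test concentration; the first replicate is given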
Target sequence (P42568 whole entry, looked up): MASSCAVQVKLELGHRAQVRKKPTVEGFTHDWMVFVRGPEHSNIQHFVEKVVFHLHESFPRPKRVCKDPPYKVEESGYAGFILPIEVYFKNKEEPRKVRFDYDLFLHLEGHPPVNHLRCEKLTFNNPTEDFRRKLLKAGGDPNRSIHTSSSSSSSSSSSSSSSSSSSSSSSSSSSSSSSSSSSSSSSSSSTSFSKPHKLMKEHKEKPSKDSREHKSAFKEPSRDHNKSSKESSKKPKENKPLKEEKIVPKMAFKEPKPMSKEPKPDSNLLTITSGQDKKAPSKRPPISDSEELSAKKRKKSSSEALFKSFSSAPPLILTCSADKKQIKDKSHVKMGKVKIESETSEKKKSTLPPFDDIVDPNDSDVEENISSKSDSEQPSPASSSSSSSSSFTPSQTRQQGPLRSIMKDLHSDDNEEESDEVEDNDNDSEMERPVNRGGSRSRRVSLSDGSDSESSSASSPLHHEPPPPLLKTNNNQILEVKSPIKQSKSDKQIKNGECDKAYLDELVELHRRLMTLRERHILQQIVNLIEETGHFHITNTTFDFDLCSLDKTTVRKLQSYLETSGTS
Numbers without * were called inactive. An excerpt; count on the stated rates, not on these rows.

SMILES,AF4-AF9 inh
CC(C)CC#Cc1cnc2c(c1)C(=O)N([C@@H](C)CO)C[C@H](C)[C@@H](CN(C)C(=O)C1CCOCC1)O2,-2.2
COCC#Cc1ccc2c(c1)O[C@H](CN(C)S(=O)(=O)c1ccc(F)cc1)[C@@H](C)CN([C@H](C)CO)S2(=O)=O,-2.0
Cc1cccc(S(=O)(=O)N2CC[C@@H]3[C@H]2c2cc(C#Cc4ccccc4F)ccc2N[C@@H]3CO)c1,-0.8
Cc1noc(C)c1NC(=O)N(C)C[C@@H]1Oc2ncc(C#CC3CCCCC3)cc2C(=O)N([C@H](C)CO)C[C@H]1C,-1.0
CC(=O)Nc1ccc(S(=O)(=O)N(C)c2ccc(OCC(=O)NCCc3ccccc3F)cc2)cc1,-1.3
Cc1noc(C)c1NC(=O)Nc1ccc2c(c1)C(=O)N([C@H](C)CO)C[C@@H](C)[C@H](CN(C)C(=O)Nc1c(C)noc1C)OCCCC[C@@H](C)O2,0.7
CO[C@H]1CN(C)C(=O)c2cc(NS(=O)(=O)c3c(C)noc3C)ccc2OC[C@H](C)NC[C@H]1C,-6.3
CC1(C(=O)NS(=O)(=O)Cc2ccccc2)CCN1C(=O)Cc1cc(F)ccc1F (stereo not given),-0.3
C[C@H](CO)N1C[C@H](C)[C@@H](CN(C)C(=O)NC2CCCC2)OCc2cn(nn2)CCCC1=O,0.1
CO[C@H]1CN(C)C(=O)c2ccc(NS(C)(=O)=O)cc2OC[C@@H](C)N(C(=O)CN(C)C)C[C@@H]1C,0.8
O=C(C[C@@H]1CC[C@H]2[C@@H](COC[C@@H](O)CN2S(=O)(=O)c2ccc(F)cc2)O1)NCCN1CCCCC1,-0.1
C[C@H](O)C#Cc1cnc2c(c1)C(=O)N([C@H](C)CO)C[C@H](C)[C@@H](CN(C)C(=O)c1ccncc1)O2,-1.8
CCCN(C)C[C@@H]1OCCCC[C@@H](C)Oc2ccc(NC(=O)NC(C)C)cc2C(=O)N([C@@H](C)CO)C[C@@H]1C,-0.3
CO[C@H]1CN(C)C(=O)c2cc(NC(=O)c3nc4ccccc4s3)ccc2OC[C@H](C)N(Cc2cncnc2)C[C@@H]1C,-15
CCC(c1nc2ccccc2[nH]1)n1c(-c2cccnc2)nc2ccccc21 (stereo not given),0.3
CC(=O)Nc1ccc2c(c1)C(=O)N(C)[C@H]1CC[C@H](CC(=O)NCc3ccc(Cl)cc3)O[C@@H]1CO2,1.1
O=C(Nc1ccccc1)N1CCCCN2[C@H](C1)[C@@H](c1ccc(Br)cc1)[C@@H]2CO,-5.8
CC1(C(=O)O)CCCN1C(=O)c1cccc2ccccc12 (stereo not given),0.5
C[C@H](NC(=O)C[C@H]1C[C@H]2c3cc(NC(=O)NC4CCCC4)ccc3O[C@H]2[C@H](CO)O1)c1ccccc1,-4.1
CCNC(=O)[C@H]1[C@H](CO)[C@H]2Cn3c(cccc3=O)[C@H]2N1C(=O)C1CCCC1,0.3
Cc1cc2nc(-c3ccc(C#N)cc3)c(Cc3ccsc3)n2c(C)c1Br,-2.2
Cc1noc(C)c1S(=O)(=O)Nc1ccc2c(c1)C(=O)N([C@@H](C)CO)C[C@@H](C)[C@H](CN(C)CC1CCCCC1)O2,0.8
C[C@H]1CN([C@@H](C)CO)C(=O)c2cc(C#CC3(O)CCCC3)cnc2O[C@H]1CN(C)S(=O)(=O)c1ccc(F)cc1,-3.6
C[C@@H]1CN([C@H](C)CO)C(=O)Cc2cc(NC(=O)Cc3ccccc3)ccc2O[C@H]1CN(C)S(C)(=O)=O,-1.6
Cc1ccc(S(=O)(=O)N[C@@H]2CC[C@@H](CCNC(=O)c3ccc4c(c3)OCO4)O[C@H]2CO)cc1,-2.2

4 records drawn at random from the list so far, as already listed:
SMILES,AF4-AF9 inh
CO[C@H]1CN(C)C(=O)c2cc(NC(=O)c3nc4ccccc4s3)ccc2OC[C@H](C)N(Cc2cncnc2)C[C@@H]1C,-15
CO[C@H]1CN(C)C(=O)c2ccc(NS(C)(=O)=O)cc2OC[C@@H](C)N(C(=O)CN(C)C)C[C@@H]1C,0.8
Cc1cccc(S(=O)(=O)N2CC[C@@H]3[C@H]2c2cc(C#Cc4ccccc4F)ccc2N[C@@H]3CO)c1,-0.8
CC(C)CC#Cc1cnc2c(c1)C(=O)N([C@@H](C)CO)C[C@H](C)[C@@H](CN(C)C(=O)C1CCOCC1)O2,-2.2

Carrying on.
SMILES,AF4-AF9 inh
COCC#Cc1ccc2c(c1)O[C@H](CN(C)Cc1ccc(F)cc1)[C@@H](C)CN([C@H](C)CO)S2(=O)=O,-0.7
COCC(=O)N1CC2(C1)CN(C(=O)NC1CCCC1)[C@@H](CO)c1c2c2ccc(OC)cc2n1C,-1.8
C[C@H](CO)N1C[C@H](C)[C@H](CN(C)C(=O)Nc2ccc3c(c2)OCO3)OCc2ccccc2-c2c(n(C)c3ccccc23)C1=O,-0.7
C[C@H]1CN([C@@H](C)CO)C(=O)c2cccc(NS(=O)(=O)c3ccc(F)cc3)c2O[C@H]1CN(C)S(=O)(=O)c1cccs1,2.6
CC1(C(=O)NS(=O)(=O)c2ccccc2C(F)(F)F)CCN1C(=O)C1CCCCC1 (stereo not given),-3.6
Cc1noc(C)c1S(=O)(=O)Nc1ccc2c(c1)CC(=O)N([C@@H](C)CO)C[C@H](C)[C@@H](CN(C)C(=O)Nc1ccc(C(F)(F)F)cc1)O2,-2.1
CCNC(=O)C[C@H]1CC[C@@H]2[C@H](COC[C@H](O)CN2C(=O)CC)O1,-2.4
CO[C@H]1CN(C)C(=O)c2cc(NC(C)=O)ccc2OC[C@@H](C)NC[C@@H]1C,-2.9
Cc1ccc(S(=O)(=O)Nc2cccc3c2O[C@H](CN(C)C(=O)Nc2ccc(C(F)(F)F)cc2)[C@@H](C)CN([C@@H](C)CO)C3=O)cc1,-6.5
COc1ccc2[nH]c3c(c2c1)CCN1C(=O)C(CC(=O)NCCN2CCOCC2)C[C@H](C(=O)N2CCCCC2)[C@@]31CCc1ccccc1 (stereo not given in full),0.0
O=C(Nc1ccc2c(c1)[C@H]1C[C@@H](CC(=O)N3CCCCC3)O[C@H](CO)[C@H]1O2)C1CCOCC1,-1.6
O=C(C[C@@H]1CC[C@@H](NC(=O)c2ccncc2)[C@H](CO)O1)NCC1CCCCC1,0.3
Cc1ccc(-c2ccc([C@H]3[C@@H](CO)N4C(=O)CN(C(=O)c5cccnc5)C[C@@H]34)cc2)cc1,-17
CCOC(=O)C1=CCN(S(=O)(=O)c2ccccc2Br)C1c1ccc(C)cc1 (stereo not given),-0.7
C[C@H]1CN([C@@H](C)CO)C(=O)c2cccc(NC(=O)Nc3ccc(C(F)(F)F)cc3)c2O[C@H]1CN(C)S(=O)(=O)c1ccc(F)cc1,-0.2
CC(C)NC(=O)N(C)C[C@@H]1OCCCC[C@H](C)Oc2ccc(NC(=O)Cc3ccccc3)cc2C(=O)N([C@H](C)CO)C[C@H]1C,-0.1
Cc1cc(C(=O)Nc2cccc3c2O[C@@H](CN(C)C(=O)Nc2cccc4ccccc24)[C@H](C)CN([C@H](C)CO)C3=O)n(C)n1,-1.5
C/C=C/c1cnc2c(c1)C(=O)N([C@H](C)CO)C[C@H](C)[C@@H](CN(C)C(=O)Nc1ccccc1F)O2,-2.6
CN(C)C(=O)[C@@H]1[C@@H](CO)[C@@H]2Cn3c(ccc(C4=CCCC4)c3=O)[C@H]1N2S(=O)(=O)c1cn(C)cn1,-1.9
COc1ccc(C#Cc2ccc3c(c2)[C@]2(C(=O)N3)[C@H](c3ccc(O)cc3)N3[C@H](c4ccccc4)[C@H](c4ccccc4)OC(=O)[C@H]3[C@@H]2C(=O)N2CCc3cc(OC)c(OC)cc3C2)cc1,0.6
CN(C)CC(=O)Nc1ccc2c(c1)[C@@H]1C[C@H](CC(=O)NCc3ccncc3)O[C@H](CO)[C@@H]1O2,-0.6
C[C@H](CO)N1C[C@H](C)[C@H](CN(C)C(=O)Nc2ccccc2)Oc2c(NC(=O)C3CCOCC3)cccc2C1=O,1.7
CC(C)(C)c1ccc(Nc2n[nH]c3ccccc23)cc1,12
C[C@@H]1CN([C@H](C)CO)C(=O)c2cc(C3=CCCC3)cnc2O[C@H]1CN(C)C(=O)C1CCCCC1,-1.6
COc1ccc(NC(=O)N(C)C[C@H]2Oc3c(NS(=O)(=O)c4cn(C)cn4)cccc3C(=O)N([C@@H](C)CO)C[C@@H]2C)cc1,-3.2

Later entries
SMILES,AF4-AF9 inh
CC(=O)N(C)C[C@H]1Oc2ncc(-c3cccc(F)c3)cc2C(=O)N([C@H](C)CO)C[C@H]1C,4.8
COCC#Cc1ccc([C@H]2[C@H](CO)N3CCCCN(S(=O)(=O)c4ccc(OC)cc4)C[C@@H]23)cc1,-1.5
COc1cccc(S(=O)(=O)N[C@H]2CC[C@H](CCn3cc(-c4ccccc4)nn3)O[C@H]2CO)c1,-0.7
COC1OC(c2ccccc2)=C(c2cnc(N)nc2)c2ccc(F)cc21 (stereo not given),2.9
COCCN1C[C@@H](CO)O[C@@H](n2cnc3c(NCc4ccncc4)ncnc32)C1,0.7
CCC(=O)N(C)C[C@@H]1Oc2cc(-c3cccnc3)ccc2S(=O)(=O)N([C@@H](C)CO)C[C@@H]1C,1.2
CCC(=O)N1C[C@H](C)[C@@H](OC)CN(C)C(=O)c2cc(NC(=O)Nc3cccc(F)c3)ccc2OC[C@@H]1C,3.8
C[C@@H]1CCCCO[C@H](CN(C)C(=O)c2ccncc2)[C@@H](C)CN([C@H](C)CO)C(=O)c2cc(NS(=O)(=O)c3cccs3)ccc2O1,-4.2
CNC[C@H]1Oc2ccc(NC(=O)Nc3c(C)noc3C)cc2CC(=O)N([C@@H](C)CO)C[C@H]1C,-1.8
C[C@@H]1CN([C@@H](C)CO)S(=O)(=O)c2ccc(C#Cc3ccc(F)cc3)cc2O[C@@H]1CN(C)S(=O)(=O)c1cn(C)cn1,1.8
Cc1ccc(S(=O)(=O)Nc2cccc3c2O[C@H](CN(C)S(=O)(=O)c2c(C)noc2C)[C@@H](C)CN([C@H](C)CO)C3=O)cc1,-1.1
CCCCC1CC2=C(C(=O)OC(C)(C)O2)C(c2ccc(F)cc2)O1 (stereo not given),-9.1
O=C(O)[C@H]1[C@H](CO)[C@H]2Cn3c(ccc(C4=CCCCC4)c3=O)[C@H]2N1Cc1ccccc1F,-27
C[C@@H]1CN([C@H](C)CO)C(=O)c2cc(NC(=O)C3CC3)ccc2O[C@H]1CN(C)Cc1ccc(C(F)(F)F)cc1,-0.4
COc1ccc(S(=O)(=O)N(C)C[C@@H]2Oc3c(NS(=O)(=O)c4cn(C)cn4)cccc3C(=O)N([C@@H](C)CO)C[C@H]2C)cc1,-0.9
C[C@@H]1CCCCO[C@@H](CN(C)Cc2ccc3c(c2)OCO3)[C@H](C)CN([C@@H](C)CO)C(=O)c2cc(NC(=O)Nc3ccc(F)cc3)ccc2O1,3.7
Cc1noc(C)c1NC(=O)N(C)C[C@H]1OCCCC[C@@H](C)Oc2ccc(NS(=O)(=O)c3ccc(F)cc3)cc2C(=O)N([C@H](C)CO)C[C@@H]1C,-3.0
Cc1ccc2c(c1)N(Cc1ccccc1)C(=O)C(C)S2 (stereo not given),-4.0
CC(C)NC(=O)N(C)C[C@H]1Oc2ccc(NC(=O)Nc3ccc(C(F)(F)F)cc3)cc2CC(=O)N([C@@H](C)CO)C[C@H]1C,2.3
COCC(=O)N(C)C[C@@H]1Oc2cc(-c3ccc(F)cc3)ccc2S(=O)(=O)N([C@@H](C)CO)C[C@@H]1C,5.3
COCC(=O)N1CCC2(CC1)CN(C(=O)CN1CCOCC1)[C@H](CO)c1c2c2ccc(OC)cc2n1C,-15
OC[C@H]1[C@H](c2ccc(-c3ccccc3F)cc2)[C@@H]2CN(Cc3cncnc3)CCCCN12,2.8
CCC(=O)Nc1ccc2c(c1)C(=O)N(C)[C@@H]1CC[C@H](CC(=O)NCC3CCCCC3)O[C@@H]1CO2,-0.7
CN(C)CC#Cc1ccc([C@@H]2[C@@H](CO)N3CCCCN(C(=O)Nc4cc(F)ccc4F)C[C@H]23)cc1,5.4
C[C@@H]1CCCCO[C@@H](CN(C)C(=O)Nc2ccc3c(c2)OCO3)[C@H](C)CN([C@@H](C)CO)C(=O)c2cc(NC(=O)Nc3ccccc3)ccc2O1,-4.8

An excerpt of these results, with the structure last:
AF4-AF9 inh | compound
-9.1 | CCCCC1CC2=C(C(=O)OC(C)(C)O2)C(c2ccc(F)cc2)O1 (stereo not given)
-27 | O=C(O)[C@H]1[C@H](CO)[C@H]2Cn3c(ccc(C4=CCCCC4)c3=O)[C@H]2N1Cc1ccccc1F

(continued)
SMILES,AF4-AF9 inh
CCCNC(=O)C[C@H]1CC[C@H]2[C@@H](COc3ccc(NC(=O)Nc4c(C)noc4C)cc3C(=O)N2C)O1,-4.3
CCc1nc2ccc(C(=O)NCc3ccc4c(c3)OCO4)cn2c1N(C)CCC(C)C,1.1
O=C(C1CCC1)N1C[C@H]2[C@@H](c3ccccc31)[C@@H](CO)N2C(=O)c1ccccc1F,1.3
COC(=O)c1ccc2nc(-c3ccc(OC)c(OC)c3)c(Cc3ccsc3)n2c1,5.1
CN(C)C(=O)C[C@H]1C=C[C@@H](NC(=O)NC2CCCC2)[C@H](CO)O1,-2.2
COCC#Cc1cnc2c(c1)C(=O)N([C@H](C)CO)C[C@@H](C)[C@H](CN(C)C(C)=O)O2,-16
O=S(=O)(c1cccs1)N1CCCc2nc(-c3ccc(F)cc3)ccc21,-0.1
COC(=O)C(CC#Cc1ccc2c(c1)[C@]1(C(=O)N2)[C@H](c2ccc(O)cc2)N2[C@H](c3ccccc3)[C@H](c3ccccc3)OC(=O)[C@H]2[C@@H]1C(=O)NC[C@H](O)c1ccccc1)C(=O)OC,-1.6
